Screening data: PubChem, several laboratories
GALR2 agonist – activates the human galanin receptor 2. GALR2-expressing cells, agonist activation read-out. activation, %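 (tested at 5 µM)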. 140,000 tested, 0.48% active;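 active = above mean plus 3 SD of all compounds, about 5% in these data, not always enough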;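 note: 0% = vehicle buffer wells and 100% = reference agonist at full effect; tested in CHO reporter cells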
HSV replic up – HSV replication enhancement | 220,000 tested, 0.005% active | HSV replication augmentation in cells, fold increase | maximum fold increase;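 active = peak rise of 1.5-fold or more in the series; tested in PC3 cells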;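 note: first round at 10 µM; read as green reporter fluorescence; hits show the peak of a series up to 25 µM; 1 = signal of infected wells without compound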
Insulin prom inh – TRM-6 insulin promoter activity inhibition. TRM-6 cells (human fetal islet line), insulin promoter-eGFP reporter, imaging; reporter expression induced with tamoxifen. 130,000 tested, 0.9% active. inhibition, % at 2 µM. AID 1273;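 active = inhibition above the mean plus 3 SD, with well images judged a real hit on visual review, cut at about 60% in these data, passing the limit was not always enough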
PKD1 inh – blocks activity of human protein kinase D1; inhibition, %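 (about 10 µM by stock and volumes)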; 200,000 tested, 0.056% active; AID 797; PKD1 kinase fluorescence polarization assay;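 active = inhibition of 50% or more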;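 note: controls were vehicle for no effect and a reference inhibitor for full effect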
Target sequence (Q15139 whole entry, looked up): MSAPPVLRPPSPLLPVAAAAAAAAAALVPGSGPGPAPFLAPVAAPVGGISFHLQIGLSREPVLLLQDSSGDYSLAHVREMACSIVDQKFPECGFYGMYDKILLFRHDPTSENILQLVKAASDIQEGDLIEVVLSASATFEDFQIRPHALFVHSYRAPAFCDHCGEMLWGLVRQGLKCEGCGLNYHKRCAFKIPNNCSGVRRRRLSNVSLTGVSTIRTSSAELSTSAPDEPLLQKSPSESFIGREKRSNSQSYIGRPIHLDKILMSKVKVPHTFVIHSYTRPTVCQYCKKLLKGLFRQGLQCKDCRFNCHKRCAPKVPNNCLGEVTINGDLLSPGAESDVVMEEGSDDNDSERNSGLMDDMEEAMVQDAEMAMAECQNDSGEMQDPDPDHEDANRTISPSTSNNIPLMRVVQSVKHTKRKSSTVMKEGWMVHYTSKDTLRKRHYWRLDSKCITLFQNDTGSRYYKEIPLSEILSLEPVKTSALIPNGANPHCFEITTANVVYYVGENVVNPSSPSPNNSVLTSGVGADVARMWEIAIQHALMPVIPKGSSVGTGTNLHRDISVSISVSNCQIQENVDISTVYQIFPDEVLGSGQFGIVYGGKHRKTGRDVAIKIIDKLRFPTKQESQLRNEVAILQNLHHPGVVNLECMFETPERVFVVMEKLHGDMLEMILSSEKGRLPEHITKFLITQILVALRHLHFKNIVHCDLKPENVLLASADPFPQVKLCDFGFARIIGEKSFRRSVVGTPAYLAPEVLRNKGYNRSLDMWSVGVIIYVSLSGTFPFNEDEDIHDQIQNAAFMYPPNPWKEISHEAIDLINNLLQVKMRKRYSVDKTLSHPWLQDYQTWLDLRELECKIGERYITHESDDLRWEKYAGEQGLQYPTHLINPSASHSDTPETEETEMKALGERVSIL
RGS16-Gao HTS – modulates binding between human RGS16 and Galphao; O15492+P09471; bead-based flow cytometry RGS16-Galphao binding, fluorescence; actives lie on both sides; binding response (% of control), % at 10 µM; 220,000 tested, 0.38% active;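 active = below 25% or above 175%, edge rows of some plates excepted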;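 note: Galphao activated by GDP with aluminum fluoride before binding; 100% = wells without compound and 0% = beads without RGS; some results beyond the cut were filed as inactive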
Insulin prom inh cell count – further read-out of Insulin prom inh, marked with its call; normalized cell count, %; measured here: cell count, toxicity; reference of the scale not given here;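 cells exposed to compound for 48 h; stained nuclei by imaging scaled within each plate; lower means fewer cells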
HSV replic up primary fold – second read-out of HSV replic up, no call of its own (marks repeat the call); fold increase; compound at 10 µM; measured here: primary screen fold increase 10 uM; tested in PC3 cells;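 GFP signal in the first replicate; 1 = infected wells without compound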
An asterisk follows results filed as active; i = inactive; · = no result given.

A first look (six entries):
SMILES | GALR2 agonist | HSV replic up | HSV replic up primary fold | Insulin prom inh | Insulin prom inh cell count | PKD1 inh | RGS16-Gao HTS
CCOC(=O)NC(O)C(=O)c1ccc(F)cc1 (stereo unspecified) | · | i | 1 | 22 | 137 | -2 | 98
CC1=NN2C(=N)/C(=C\c3cc(C)n(-c4cccc(C)c4)c3C)C(=O)N=C2S1 | · | i | 1 | · | · | · | 98
COc1ccc(C(=O)CC(c2ccccc2)C2C(=O)CCCC2=O)cc1 (stereo unspecified) | -0.6 | i | 0.88 | -14 | 77 | 1 | 103
C=CCn1cc(/C=N/N2C(=O)C3C4C=CC(C4)C3C2=O)c2ccccc21 (stereo unspecified) | · | i | 0.9 | -8 | 117 | -9 | 105
CC1=CC(C)(C)n2c(O)c(N=NC(N)=S)c3cc(C)cc1c32 | 0.6 | i | 0.89 | -24 | 143 | -13 | 101
CCN(CC)c1ccc(NC(=O)c2nc3nc(C)cc(C(F)F)n3n2)cc1 | -2.5 | i | 0.92 | · | · | -1 | 158

Results, repeating the preview:
SMILES | GALR2 agonist | HSV replic up | HSV replic up primary fold | Insulin prom inh | Insulin prom inh cell count | PKD1 inh | RGS16-Gao HTS
CCOC(=O)NC(O)C(=O)c1ccc(F)cc1 (stereo unspecified) | · | i | 1 | 22 | 137 | -2 | 98
CC1=NN2C(=N)/C(=C\c3cc(C)n(-c4cccc(C)c4)c3C)C(=O)N=C2S1 | · | i | 1 | · | · | · | 98
COc1ccc(C(=O)CC(c2ccccc2)C2C(=O)CCCC2=O)cc1 (stereo unspecified) | -0.6 | i | 0.88 | -14 | 77 | 1 | 103
C=CCn1cc(/C=N/N2C(=O)C3C4C=CC(C4)C3C2=O)c2ccccc21 (stereo unspecified) | · | i | 0.9 | -8 | 117 | -9 | 105
CC1=CC(C)(C)n2c(O)c(N=NC(N)=S)c3cc(C)cc1c32 | 0.6 | i | 0.89 | -24 | 143 | -13 | 101
CCN(CC)c1ccc(NC(=O)c2nc3nc(C)cc(C(F)F)n3n2)cc1 | -2.5 | i | 0.92 | · | · | -1 | 158
O=C1NC(=O)c2cc(NC(=O)C3CCCO3)ccc21 (stereo unspecified) | -2.3 | i | 1.1 | -362 | 50 | 0 | 99
CCCCOc1ccc(C2(C)CC(=O)NC2=O)cc1 (stereo unspecified) | -1.2 | i | 0.96 | -15 | 93 | -12 | 101
Fc1ccc(-c2nnc(CSc3nnc(-c4cccs4)o3)o2)cc1 | -2.6 | i | 1 | 40 | 73 | 3 | 98
Cc1cc2cc(CCNC(=O)c3ccc(S(=O)(=O)N4CCOCC4)cc3)c(=O)[nH]c2cc1C | -0.3 | i | 0.74 | -82 | 176 | -9 | 99
O=C(Nc1ccccc1Br)C1CC(=O)N(c2ccc3c4c(cccc24)CC3)C1 (stereo unspecified) | -0.9 | i | 0.61 | 19 | 148 | -13 | 103
O=C(COC(=O)c1ccccc1)Nc1ccccc1N1CCOCC1 | -2.2 | i | 0.98 | -138 | 119 | 2 | 113
COc1c(C)cc(C(=O)C2CCCN(C(=O)c3snnc3C)C2)cc1C (stereo unspecified) | · | i | 0.96 | · | · | -10 | 98
Clc1ccccc1-c1nc(-c2ccncc2)no1 | · | i | 1 | · | · | · | 125
CCCS(=O)(=O)N1CCCC(C(=O)N2CCN(C(=O)OCC)CC2)C1 (stereo unspecified) | -0.9 | i | 0.97 | · | · | -7 | 100
CN(C)c1ccc(CNc2ncn[nH]2)cc1 | · | i | 1.1 | · | · | -9 | 106
COC(=O)Cc1c(C)c2ccc(OCC(=O)N(C)C)cc2oc1=O | -2.9 | i | 1.1 | 22 | 64 | -1 | 111
O=C(CSc1ncnc2c1oc1ccccc12)Nc1nccs1 | · | · | · | · | · | 0 | 154
O=C(NCc1ccco1)C1CC(c2ccc(Cl)cc2)=NO1 (stereo unspecified) | · | i | 1 | · | · | -9 | 112
NS(=O)(=O)c1ccc(O)c(N2C(=O)c3cccc4c(C(=O)c5ccccc5)ccc(c34)C2=O)c1 | · | i | 0.85 | · | · | 4 | 106
CC(C)CN1CCN(Cc2ccc(CN3CCCCC3)s2)CC1CCO (stereo unspecified) | · | i | 0.88 | · | · | -3 | 105
Cc1cc(C(=O)COC(=O)CCc2nc3ccccc3s2)c(C)n1C | -1.1 | i | 1 | -78 | 180 | -5 | 103
Fc1ccc(CSc2ccc(-c3cccs3)nn2)cc1 | 1.1 | i | 0.94 | · | · | -2 | 99
Cc1nc(Cl)c(S(N)(=O)=O)c(C)c1Cl | · | i | 0.98 | 17 | 129 | -3 | 109
COc1cc2c(cc1OC)C(C1C(=O)CCCC1=O)N(C(=O)CCl)CC2 (stereo unspecified) | -0.3 | i | 1 | 0 | 98 | -9 | 107
O=C(O)c1ccccc1-c1ccccc1C(=O)Nc1ccccc1 | -0.8 | i | 0.83 | -20 | 84 | 2 | 101
Cn1c(SCc2ccccc2Cl)nc2ccccc21 | -2.0 | i | 1 | 31 | 134 | 3 | 106
O=C(NC(=S)Nc1cccc(F)c1)c1cccc([N+](=O)[O-])c1 | · | i | 0.92 | · | · | · | 99
CCCc1cc(=O)[nH]c(SC(CC)C(=O)Nc2ccccc2C#N)n1 (stereo unspecified) | -1.6 | i | 0.88 | 42 | 57 | -2 | 95
Cc1ccc(C)c(N2N=C(C(=O)Nc3nccs3)CCC2=O)c1 | · | i | 0.93 | 58 | 110 | -4 | 101
COc1ccc(C(CCN2CCCCC2)c2c(OC)cc(OC)c3c(-c4ccccc4)cc(=O)oc23)cc1 (stereo unspecified) | · | i | 0.56 | · | · | · | 100
COc1ccc(S(=O)(=O)N2CCOCC2)cc1NC(=O)c1cccc2c(=O)c(C)c(-c3ccccc3)oc12 | 1.0 | i | 0.7 | · | · | 7 | 100
CC(NC(=O)CCc1ccc(S(=O)(=O)NC2CCCCC2)cc1)c1ccccc1 (stereo unspecified) | -1.4 | i | 0.79 | -70 | 68 | 2 | 99
Cc1cc(N2CCN(c3ccc(F)cc3)CC2)n2ncnc2n1 | · | i | 0.89 | · | · | · | 98
Cc1ccc(NCCC(=O)c2cccs2)cc1C | · | i | 0.9 | · | · | -4 | 100
C(=C\c1ccccc1)/CNn1cnnc1 | -0.8 | i | 1.1 | -19 | 82 | -4 | 98
COc1ccc(NC(=O)C(=S)NC2CCCCC2)cc1 | · | i | 0.99 | · | · | 1 | 102
Nc1nonc1-c1noc(COc2ccccc2Cl)n1 | -0.8 | i | 0.9 | · | · | -1 | 103
O=C(O)c1ccccc1C(=O)c1cccs1 | -0.9 | i | 1 | · | · | -3 | 104
O=C(Cc1ccccc1)Nc1cc(Cl)ccc1Sc1ccccc1 | -0.6 | i | 1 | -11 | 96 | -1 | 98
CCCCS/C(N)=N/N=C/c1cc(C)ccc1O | -2.7 | i | 0.87 | 31 | 146 | -4 | 101
Cc1c(NS(=O)(=O)CC23CCC(CC2=O)C3(C)C)c(=O)n(-c2ccccc2)n1C (stereo unspecified) | 0.0 | i | 0.93 | · | · | -3 | 90
Cc1[nH]c(=S)sc1Cc1ccc(F)cc1 | -1.9 | i | 0.96 | 45 | 100 | -1 | 99
Cc1cc(NC(=O)CSc2nnc(Nc3ccccc3F)s2)no1 | · | i | 1 | · | · | -1 | 101
O=C(NC1CCCCC1)C1CC(=O)N(CCc2ccccc2)C1 (stereo unspecified) | -0.8 | i | 0.75 | -20 | 114 | -8 | 105
COc1ccc(OC)c2[nH]c(C(=O)O)cc12 | -1.1 | i | 0.87 | 16 | 88 | 2 | 101
CCOc1ccc(-c2nc(N)nc(C)c2-c2ccc(OC)c(OC)c2)c(O)c1 | 1.3 | i | 0.87 | -10 | 98 | -2 | 100
CCCCOCCCNC(=O)N[C@H](C(=O)O)C(C)CC (stereo partly specified) | · | i | 1.1 | · | · | · | 96
CC(OC(=O)C1COc2ccccc2O1)C(=O)N(C)c1ccccc1 (stereo unspecified) | · | i | 0.92 | · | · | 3 | 104
COc1ccc(C(=O)CSc2nnc(Cc3ccccc3)o2)cc1 | -2.3 | i | 0.72 | · | · | -10 | 98
(further entries)
SMILES | GALR2 agonist | HSV replic up | HSV replic up primary fold | Insulin prom inh | Insulin prom inh cell count | PKD1 inh | RGS16-Gao HTS
c1ccc(-c2nn3c(C4COc5ccccc5O4)nnc3s2)cc1 (stereo unspecified) | -2.0 | · | · | 35 | 89 | -11 | ·
CCC(C)NC(=O)C1CCN(C(=O)N(C)C)CC1 (stereo unspecified) | -3.2 | i | 0.81 | · | · | -6 | 51
CC(C)=C1C(=O)NN(c2cccc(Cl)c2)C1=O | 0.6 | i | 1.1 | 10 | 96 | -6 | 98
CC(C)C[C@H](N)c1nnc(S(=O)(=O)Cc2cccc(F)c2)o1 | -1.8 | i | 1 | · | · | 1 | 69
CCCCOc1ccc(C(=O)Nn2cnnc2)cc1 | -1.3 | i | 1.1 | 30 | 105 | -6 | 87
Cc1nn(Cc2ccccc2)c(Cl)c1/C=C/C(=O)OCC(=O)NC(C)C(C)C (stereo unspecified) | · | i | 1.1 | 25 | 124 | -3 | 106
O=C(NN=C1CCCCC1)c1ccccc1OCc1ccc(F)cc1 | -0.2 | i | 1.1 | 7 | 81 | -1 | 106
CCN(CC)C(=O)C1CCCN(c2ccc([N+](=O)[O-])cc2/C=N/NC(=O)c2ccc([N+](=O)[O-])cc2)C1 (stereo unspecified) | -0.8 | · | · | 8 | 163 | -6 | 96
Cc1ccc2nc(-c3ccc(SCC(=O)Nc4cc(C)on4)nc3)[nH]c2c1 | 0.3 | i | 1.1 | · | · | -6 | 101
CCOc1ccc2[nH]c(=O)c(CN(Cc3ccco3)C(=O)c3ccc(Br)cc3)cc2c1 | -0.7 | i | 1.1 | -6 | 112 | -5 | 103
COC(=O)c1ccc(C(=O)OC)c(NC(=O)CSc2cccc[n+]2[O-])c1 | -1.8 | i | 0.89 | -26 | 91 | 1 | 96
CCc1nc2ccc(C(=O)Nc3nnc(C)s3)cc2nc1CC | · | i | 0.92 | 35 | 202 | 4 | 105
OCC1(Cc2cccc(Cl)c2)CCCN(Cc2ccc3cc(F)ccc3n2)C1 (stereo unspecified) | · | i | 1.1 | · | · | -8 | 97
CSc1nc(N(C)CCO)c2sc3nc(-c4ccco4)c4c(c3c2n1)CCC4 | -1.3 | i | 0.77 | -3 | 158 | 7 | 67
CCOC(=O)/C(C)=N/NC(=O)c1cccc([N+](=O)[O-])c1 | · | i | 0.89 | -29 | 53 | 4 | 100
CN1CCC=C(C(=O)N2c3ccccc3Sc3ccc(Cl)cc32)C1 | · | i | 0.89 | · | · | · | 102
CCN(CC)S(=O)(=O)c1ccc(NC(=O)COC(=O)c2ccc(NC(=O)CC#N)cc2)cc1 | · | i | 1 | · | · | 3 | 105
O=C1CN(C(=O)CSc2nnc3ccccn23)c2ccccc2N1 | -0.6 | i | 0.92 | · | · | -7 | 101
COc1cc(OC)c(C(=O)CCC(=O)O)cc1OC | -1.6 | i | 0.99 | -21 | 58 | -11 | 125
COc1ccc(-c2nnc3ccc(SCC(=O)Nc4nc5ccc(C)cc5s4)nn23)cc1OC | -1.5 | i | 0.94 | 42 | 74 | 6 | 110
CCCC(=O)N=c1sc2cccc(F)c2n1C | -4.1 | i | 0.82 | · | · | -4 | 76
COCCNC(=S)N(CCc1c(C)[nH]c2ccc(Cl)cc12)Cc1cccs1 | · | i | 0.92 | -111 | 55 | 1 | 105
COc1cc(-c2cc(C(F)(F)F)n3ncc(C(=O)O)c3n2)cc(OC)c1OC | 0.6 | i | 0.98 | 64 | 97 | -2 | 105
CC(C)(C)NC(=O)CN(C(=O)CCN1CCCc2ccccc21)C(C)(C)C | -0.9 | i | 1.2 | -57 | 117 | -1 | 103
Cc1nnsc1C(=O)NNC(=O)c1ccc(C(F)(F)F)cc1 | · | i | 1.2 | · | · | · | 95
CCc1nc2oc3ccccc3c(=O)c2c(=O)n1Cc1ccccc1 | -0.8 | i | 0.86 | 7 | 92 | -1 | 68
COc1ccc(CN2CCOCCOCCOCC2)cc1 | · | i | 1.2 | · | · | · | 102
COC(=O)NNC(=S)NCc1ccc(C)cc1 | -0.9 | i | 1 | · | · | -12 | 104
CCOCC(=O)Nc1nnc(SCCOC)s1 | -1.4 | i | 0.8 | 30 | 65 | 5 | 101
CC1CCCCC1NC(=O)CC1Oc2ccccc2NC1=O (stereo unspecified) | -1.6 | i | 0.92 | · | · | -11 | 163
CCc1ccc2oc(-c3cc(N)ccc3Cl)nc2c1 | -0.3 | i | 0.95 | · | · | -5 | 99
COc1ccc(C(=O)O/N=C(/c2ccccc2)c2ccncc2)cc1 | · | i | 0.94 | 50 | 112 | -5 | 66

Among those listed so far, these have a cyano group.
SMILES | GALR2 agonist | HSV replic up | HSV replic up primary fold | Insulin prom inh | Insulin prom inh cell count | PKD1 inh | RGS16-Gao HTS
CCCc1cc(=O)[nH]c(SC(CC)C(=O)Nc2ccccc2C#N)n1 (stereo unspecified) | -1.6 | i | 0.88 | 42 | 57 | -2 | 95
CCN(CC)S(=O)(=O)c1ccc(NC(=O)COC(=O)c2ccc(NC(=O)CC#N)cc2)cc1 | · | i | 1 | · | · | 3 | 105
